Screening data as filed in PubChem BioAssay.
Calb FLC: affects C. albicans growth with fluconazole. C. albicans CaCi-2 (fluconazole-resistant clinical isolate) + fluconazole, Alamar Blue growth, 48 h. growth inhibition, % (no concentration beside the values). 300,000 compounds, 0.57% hits;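 active = most replicates above 75%; inconclusive = exactly half above 75%; inactive = most below 75%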;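 also: all wells also contain fluconazole at 8 µg/ml as a sub-toxic cotreatment; 0% = median of DMSO wells and 100% = median of geldanamycin control wells; wells of about 8 µL received 7.5 nL stock; the first replicate is given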
Vif TR-FRET: inhibitors of Vif binding to APOBEC3G peptide, primary screen, biochemical, TR-FRET, GST-Vif 1-94, biotin-A3G peptide, dose response retest (AID 1117319). TR-FRET GST-Vif / biotin-A3G peptide binding; higher % means a stronger effect; test concentration not given here; strong numbers were not always called active. one-dose inhibition, %; IC50 in µM for titrated hits. 260,000 compounds, 0.57% hits;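 active = above the screen mean plus three standard deviations and confirmed in dose response; inconclusive = results disagree or hit not tested in dose response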;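 also: Vif residues 1-94 fused to GST binding biotinylated APOBEC3G peptide 110-148; 0% = full assay without inhibitor and 100% = GST in place of GST-Vif; retest series ran down from 100 µM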
B2AR ag: human beta-2 adrenergic receptor agonism by FAP; Am2.2-beta2AR cells, FAP receptor internalization, flow cytometry; reference of the scale not given here; response, % (test concentration not listed); 340,000 compounds, 0.43% hits;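 active = response above a set limit, near 3 SD of response in nonfluorescent compounds, cut at about 42% in these data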;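 also: stock transfer was 100 nL into about 11 µL; a reference agonist was the positive control; negative values mostly stem from fluorescent compounds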
Target sequence (P07550 whole entry, looked up): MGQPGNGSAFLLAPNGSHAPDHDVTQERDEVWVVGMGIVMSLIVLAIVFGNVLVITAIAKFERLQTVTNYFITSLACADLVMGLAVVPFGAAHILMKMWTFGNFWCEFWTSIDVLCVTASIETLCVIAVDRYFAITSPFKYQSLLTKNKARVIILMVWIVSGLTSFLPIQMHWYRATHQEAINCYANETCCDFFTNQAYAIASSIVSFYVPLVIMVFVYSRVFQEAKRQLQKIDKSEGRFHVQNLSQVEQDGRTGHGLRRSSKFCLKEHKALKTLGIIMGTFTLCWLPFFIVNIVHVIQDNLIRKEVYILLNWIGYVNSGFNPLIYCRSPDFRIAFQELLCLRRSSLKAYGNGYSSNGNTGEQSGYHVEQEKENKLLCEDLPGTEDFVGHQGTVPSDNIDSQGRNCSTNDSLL
ALR H2O2 inh: blocks human ALR sulfhydryl oxidase activity; P55789; purified ALR, DTT oxidation, H2O2 HRP-luminol luminescence; inhibition, % (test concentration not listed); 290,000 compounds, 3.8% hits; AID 485317;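 active = mean and each replicate at 75% or more; inconclusive = only one of the two met; inactive = neither met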;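 also: stock transfer was 7.5 nL into about 7.5 µL; 0% = neutral wells and 100% = wells with inactivated enzyme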
Target sequence (P55789 whole entry, looked up): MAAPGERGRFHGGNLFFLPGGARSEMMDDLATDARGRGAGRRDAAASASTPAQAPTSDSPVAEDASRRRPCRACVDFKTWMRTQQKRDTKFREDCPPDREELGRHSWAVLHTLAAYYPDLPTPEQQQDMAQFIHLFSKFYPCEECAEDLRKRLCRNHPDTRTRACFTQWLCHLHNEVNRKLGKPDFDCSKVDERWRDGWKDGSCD
RanGTP-Imp inh: disruptors of Ran-importin-beta complex formation – biochemical, FRET, CFP-Ran, YFP-importin-beta, homogeneous, primary screen | inhibition, % (no concentration beside the values) | 300,000 compounds, 1.1% hits | cell-free CFP-Ran/YFP-importin-beta FRET ratio | AID 2216;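 active = most replicates above 15%; inconclusive = exactly half above 15%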;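 also: 0% = DMSO wells and 100% = Ran loaded with GDP instead of GTP; wells of about 40 µL received 100 nL stock; the first replicate is given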
LANA-H2B inh: blocks KSHV LANA binding to histone H2A/H2B; Q9QR71; cell-free LANA-H2A/H2B peptide, fluorescence polarization; inhibition, % (test concentration not listed); 320,000 compounds, 0.6% hits; AID 2629; in the data active = inhibition mostly above about 10%, no sharp cut-off; inactive = mostly below about 6.7%;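 also: stock transfer was 7.5 nL into about 10 µL; 0% = median of vehicle wells and 100% = median of positive control wells; one replicate is shown; the record names a cut of 25% in any replicate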
HNF4A DNA FP: change in binding of human HNF4 alpha to DNA | 360,000 compounds, 0.3% hits | activity change, % at 10 µM | P41235 | HNF4a-FITC DNA binding, fluorescence polarization, 1 h; in the data active = activity change above about 30%, passing the limit was not always enough;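 also: controls were the assay level and a saturating level of protein; the project sought stronger binding though the title names inhibitors; some compounds called inactive have numbers as strong as hits; positive values seem to mean higher polarization but the record does not say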
Target sequence (P41235 whole entry, looked up): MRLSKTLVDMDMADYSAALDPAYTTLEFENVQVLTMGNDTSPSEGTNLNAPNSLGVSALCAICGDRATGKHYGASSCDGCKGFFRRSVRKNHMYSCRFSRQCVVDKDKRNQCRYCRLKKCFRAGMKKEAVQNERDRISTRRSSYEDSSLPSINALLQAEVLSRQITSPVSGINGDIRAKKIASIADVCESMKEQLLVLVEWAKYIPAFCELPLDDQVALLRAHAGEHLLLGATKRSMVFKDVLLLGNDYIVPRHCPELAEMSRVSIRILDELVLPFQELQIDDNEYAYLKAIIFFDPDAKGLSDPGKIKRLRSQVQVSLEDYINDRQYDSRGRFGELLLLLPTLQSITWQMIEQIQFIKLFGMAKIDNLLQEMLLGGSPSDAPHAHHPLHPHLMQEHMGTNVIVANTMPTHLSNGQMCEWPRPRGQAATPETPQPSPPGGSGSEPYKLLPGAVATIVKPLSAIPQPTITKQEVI
The depositor's hits bear a star; ? = inconclusive; nt = not tested or not shown; + = active, no number; & = joins results of further samples.

Each structure is followed by: Vif TR-FRET	RanGTP-Imp inh	ALR H2O2 inh	B2AR ag	HNF4A DNA FP	Calb FLC	LANA-H2B inh
> CCOC(=O)N1CCN(c2c(N3CC=C(c4ccccc4)CC3)c(=O)c2=O)CC1
→ 3%	0.2	2	-13	-0.6	-7	-2.7
> Cn1ccnc1SCC(=O)c1ccc(Br)cc1
→ 67%	1.3	-21	-1	1.7	?	-0.4
> COc1ccc(Cl)c(Cn2c(NCCCO)nc3c2c(=O)n(C)c(=O)n3C)c1
→ 1%	1.6	8	-1	-1.6	5	2.2
> O=C(NCCc1ccc(F)cc1)c1cccc(NC(=O)c2ccccc2)c1
→ nt	-3.2	0	-3	0.0	15	-3.6
> Cc1nc(-c2ccc(S(=O)(=O)N3CCN(C4c5ccccc5-c5ccccc54)CC3)s2)cs1
→ 20%	-1.1	0	2	-0.2	-3	-0.1
> CC1CN(Cc2ccccc2)C(=O)NC1=O (stereo not given)
→ -9%	nt	nt	6	0.8	nt	nt
> Cc1cc(C(=O)NNS(=O)(=O)c2cc(C(=O)O)ccc2Cl)c(C)n1-c1ccccc1
→ 9%	nt	24	-5	-5.4	nt	2.7
> NC(=O)c1cc([N+](=O)[O-])ccc1N1CCN(Cc2ccccc2)CC1
→ nt	5.1	-2	-5	0.9	-27	12
> O=C(NCCO)c1cc2cc(Cl)cc(Cl)c2oc1=O
→ 8%	nt	-6	-4	1.2	-7	2.1
> COc1ccc2oc(=N)c(C(=O)Nc3ccc(F)cc3)cc2c1
→ nt	-0.6	-2	-3	0.8	-2	-5.1
> S=C1NCCOCCOCCOCCNC(=S)N2CCOCCOCCN1CCOCCOCC2
→ 4%	0.4	0	0	-0.3	4	1.8
> CS(=O)(=O)c1nc(-c2ccc(F)cc2)cc(C(F)(F)F)n1
→ 11%	?	nt	73*	-6.0	?	nt
> CCCCNC(=O)CSc1nc(O)cc(=O)n1C1CCCC1
→ -5%	2.1	nt	-4	-1.9	11	0.4
> O=C(O)c1cccc(N/N=C/c2ccc(-c3ccccc3)cc2)c1
→ 7%	2.3	nt	4	0.6	12	nt
> COc1cc(OC)c(/C=N/NC(=O)c2ccncc2)c(OC)c1
→ -6%	-1.8	30	-2	1.7	1	-1.4
> CCc1cccc2c(C=C(C#N)C#N)cn(CC(=O)N3CCCC3)c12
→ -3%	3.2	-4	4	2.1	6	-3.8
> CCn1c(C)[n+](CC)c2ccc(C(=O)N(C)c3ccccc3)cc21
→ 17%	2.9	-8	14	4.6	0	1.7
> C(=NN=C(NN=Cc1cccs1)NN=Cc1cccs1)c1cccs1
→ 4%	nt	nt	4	6.9	nt	nt
> CC(C)NC(=O)Cn1c(SCC(=O)N2c3ccccc3CC2C)nc2ccccc21 (stereo not given)
→ 29%	-0.9	2	-4	-6.0	-3	1.0
> Cn1cc([N+](=O)[O-])c(C(=O)n2cccn2)n1
→ 23%	-0.7	-4	-3	0.2	-16	3.2
> O=C(Nc1cccnc1)c1ccco1
→ 30%	4.4	nt	11	1.3	?	-1.5
> CN(C)c1ccc(S(=O)(=O)NCC(=O)OCC(=O)NC(=O)C2CCCCC2)cc1[N+](=O)[O-]
→ 6%	nt	1	4	2.0	nt	8.4
> Cc1ccc(NC(=O)CCS(=O)(=O)c2cc3[nH]c(=O)c(=O)[nH]c3cc2C)cc1
→ 8%	2.4	1	1	-1.1	9	3.5
> COc1cc(CCC(=O)N2CCN(c3ccc(N4CCOCC4)nn3)CC2)cc(OC)c1OC
→ 3%	3.8	4	nt	nt	-1	-8.6
> COC(CNC(=O)c1cnn2c(C)c(Cc3ccccc3)c(C)nc12)OC
→ -1%	-0.3	7	16	-1.6	18	2.5
> O=C(NCc1ccncc1)C1CCCN(S(=O)(=O)c2cc(Cl)ccc2Cl)C1 (stereo not given)
→ -2%	-0.2	2	17	1.1	8	-3.8
> O=C(NCc1ccco1)C1CC(c2ccc(Cl)c(Cl)c2)=NO1 (stereo not given)
→ -8%	0.5	-6	-13	-0.6	3	3.9
> CCC(=O)N1CCc2cc(S(=O)(=O)NCCC(=O)Nc3ccc(OC)cc3)ccc21
→ nt	1.9	-4	-17	-1.4	-1	2.0
> Cc1ccc(N=CC2=C(O)CC(c3ccccc3Cl)CC2=O)cc1 (stereo not given)
→ -17%	0.5	nt	-4	5.7	8	-4.5
> CCCCOC(=O)c1ccc(NC(=O)Nc2ccc(OC)c(OC)c2)cc1
→ -2%	-4.5	-18	3	-5.2	-3	-3.5
> Cn1c2ccccc2c2cc(/C=N/NC(=O)c3cc(O)ccc3O)ccc21
→ nt	-3.4	-4	8	-28	-7	4.8
> COc1ccc(Nc2c(-c3ccco3)nc3ccc(C)cn23)cc1
→ -10%	4.6	9	-3	2.7	-1	-1.3
> Clc1ccc(OCCn2ccnc2)cc1Cl
→ nt	1.9	-11	-5	-0.2	-43	-1.8
> CC(C)(C)c1ccc(C(=O)OCCN2CCCCC2)cc1
→ -12%	0.7	-7	-5	0.6	-2	3.4
> O=C(N/N=C/C=C\c1ccccc1[N+](=O)[O-])c1ccco1
→ nt	-0.5	-23	-4	0.6	?	1.9
> CC(c1n[nH]c(=S)n1-c1ccc(Cl)cc1)N(C)C (stereo not given)
→ 32%	1.8	41	1	0.7	3	3.4
> Nc1ncccc1C(=O)OCC(=O)NC1CCCCCC1
→ 31%	nt	1	7	10	nt	-0.8
> COc1ccccc1N1CCN(C(=O)c2nn(C)c3c2CS(=O)(=O)c2ccccc2-3)CC1
→ 1%	0.7	12	-9	3.7	27	3.3
> CC(C)(C)n1[nH]c2c3c(ccc2c1=O)C(=O)c1ccccc1C3=O
→ 3%	-1.3	-13	3	-2.4	7	-5.8
> Cc1ccc(OCC(=O)OCCN2C(=O)c3ccccc3C2=O)cc1C
→ 1%	-1.3	-7	4	1.2	-3	19*
> CC1C/C(=C/c2cccs2)C(=O)/C(=C/c2cccs2)C1 (stereo not given)
→ ?	-11	nt	-13	22	1	nt
> COc1ccc(NS(=O)(=O)c2cccc(C(=O)NCCCN3CCOCC3)c2)cc1
→ 0%	3.5	0	2	-2.3	2	0.9
> CC(=O)N(O)CCCCCNC(=O)CCC(=O)N(O)CCCCCNC(=O)CCC(=O)N(O)CCCCCN
→ 0%	-1.8	38	-8&10	1.7&2.2	nt	1.4
> CC12CCC3c4cc(CN5CCOCC5)c(O)cc4CCC3C1CCC2=O (stereo not given)
→ -14%	nt	nt	-7	-0.3	nt	nt
> Cc1ccc(S(=O)(=O)NNC(=O)c2cnn(-c3ccccc3)c2-n2cccc2)cc1
→ 7%	2.1	nt	-1	-0.1	12	0.9
> Nc1nc(SCc2cccc(Br)c2)n[nH]1
→ nt	0.8	-27	2	-1.6	6	2.2
> CCn1c2ccc(Cl)cc2c2nc3ccccc3nc21
→ 31%	10.0	24	nt	nt	26	-3.7
> COc1ccc(-c2cc(C(=O)Nc3cnn(Cc4ccccc4C)c3)no2)cc1OC
→ -1%	-2.8	-1	5	1.3	36	1.0
> O=C(NCc1ccncc1)C(=O)N/N=C/c1ccccn1
→ 6%	nt	2	-6	6.2	17	-0.1
> CCn1c(SCC(=O)N(C)c2c(N)n(Cc3ccccc3)c(=O)[nH]c2=O)nc2ccccc21
→ nt	-1.3	-6	1	-0.5	4	-0.4

Next section:
Each structure is followed by: Vif TR-FRET	RanGTP-Imp inh	ALR H2O2 inh	B2AR ag	HNF4A DNA FP	Calb FLC	LANA-H2B inh
> O=C(COC(=O)c1ccc(Cl)nc1)Nc1ccccc1OC(F)F
→ 4%	0.1	0	7	-2.1	11	4.3
> O=C(CC1C(=O)NCCN1Cc1cccc(F)c1)NCCCN1CCCC1=O (stereo not given)
→ -1%	?	-18	-5	-1.9	-6	15*
> Cc1ccc(NC(=O)c2cccc(F)c2)cc1S(=O)(=O)N1CCCCCC1
→ 14%	1.3	3	-8	2.1	-6	-1.4
> COc1cc(/C=N/NC(=S)NC2CC3CC2C2C=CCC32)ccc1O (stereo not given)
→ -6%	3.3	34	-3	0.0	?	0.4
> O=C(Nc1cccc(-c2ccc(N3CCCCC3)nn2)c1)C(F)(F)F
→ -15%	3.7	92*	-2	1.8	0	6.1
> CC(=O)N1CCCc2cc(S(=O)(=O)N3CCCC(C(=O)NCc4ccccc4)C3)ccc21 (stereo not given)
→ 7%	0.7	-3	-10	1.8	-1	-0.8
> COc1ccc(-c2nc(CSCC(=O)NCCCN3CCCC3=O)c(C)o2)cc1OC
→ 3%	-0.5	98*	0	-1.4	-1	0.8
> O=c1[nH]c2c(=O)[nH]cnc2nc1-c1ccccc1
→ nt	47*	-2	7	1.4	16	-2.7
> Nc1ccccc1C(=O)NNc1ncc(C(F)(F)F)cc1Cl
→ -4%	-2.6	-4	-17	2.6	32	0.9
> COc1ccc(NC2CCCN(C(=O)c3cccnc3SC)C2)cc1OC (stereo not given)
→ 3%	4.8	100*	10	2.5	13	0.2
> COc1ccc(OCCSc2nnc(C(C)NC(=O)c3ccccc3F)n2C)cc1 (stereo not given)
→ nt	3.4	nt	1	3.3	8	6.0
> CCOC(=O)CN1N=C(/C=C/c2ccc(OCC)cc2)CCC1=O
→ -7%	5.2	0	1	-3.7	-8	4.5
> C=CCOc1c(Cl)cc(CNc2ccc3[nH]c(=O)[nH]c3c2)cc1OC
→ 11%	?	98*	-1	-0.6	40	-3.5
> COc1cc(/C=C(\C#N)C(=O)NC(C)C)cc(Cl)c1O
→ 2%	-3.4	97*	9	4.8	64	2.4
> CC[C@@]1(C(=O)OC)N[C@H](CN(C)C(=O)c2ccc(F)cc2)[C@@H]2C(=O)N(C)C(=O)[C@@H]21
→ -2%	nt	nt	-2	1.1	nt	nt
> COc1nc(N=C(N)N)nc2c(C)cccc12
→ -1%	2.1	-1	0	1.8	-17	-0.4
> O=C(Nc1ccc(S(=O)(=O)Nc2ccccn2)cc1)C(F)(F)F
→ 1%	6.3	-5	3	8.7	-12	-1.4
> COc1cc([N+](=O)[O-])ccc1NC(=O)COC(=O)C=C(C)C
→ nt	1.1	-36	-3	-0.1	-13	4.6
> CCn1c(SCC(=O)Nc2nccs2)nnc1-c1ccccn1
→ nt	7.0	1	-3	0.6	4	3.2
> Cc1cc(C)cc(N(C(=O)c2csnn2)C(C(=O)NC2CCCC2)c2ccccn2)c1 (stereo not given)
→ nt	3.0	-3	1	0.1	47	3.0
> Oc1[nH]c2ccc(Br)cc2c1N=Nc1nn[nH]n1
→ nt	3.2	90*	0	-9.3	8	-2.2
> CC(C)CC(=O)c1c[nH]c(C(=O)N2CCN(Cc3ccccc3)CC2)c1
→ -11%	-0.1	3	-7	5.5	28	+
> CC(=O)c1ccc(S(=O)(=O)NCCCC(=O)N(C)Cc2ccc3c(c2)OCO3)cc1
→ nt	nt	-1	-5	0.0	nt	1.1
> Cc1ccc(NC(=O)Cn2ncc3ccccc32)c(Cl)c1
→ 0%	6.3	-2	8	-2.4	5	1.6
> COc1ccccc1C1NC(=O)NC(C)=C1C(=O)OC1CCCCC1 (stereo not given)
→ 10%	1.5	-33	2	-1.4	6	-3.8
> O=C(CC(c1ccccc1)c1cc(Br)ccc1O)NCc1ccco1 (stereo not given)
→ 3%	6.4	0	2	3.4	27	-2.3
> CN(C)/C=N/C(=S)Nc1ccc(Cl)cc1
→ -5%	-0.8	3	-5	-4.3	-14	3.2
> CCCCN(C(=O)c1cc2c(s1)CCC2)c1c(N)n(CCC)c(=O)[nH]c1=O
→ 14%	nt	nt	0	-9.2	nt	nt
> COc1ccc(C(CC(=O)NCc2ccccc2)Sc2n[nH]c(-c3ccc(Cl)cc3)n2)cc1 (stereo not given)
→ 22%	3.0	-1	-5	-3.7	28	-5.8
> COc1nccnc1NS(=O)(=O)c1ccc(NCc2ccccc2O)cc1
→ nt	-3.3	36	0	1.3	-1	-0.7
> COC(=O)c1c(NC(=O)C2(C)Cc3ccccc3C(=O)O2)sc2c1CCCC2 (stereo not given)
→ 21%	0.4	nt	8	-4.2	6	-5.4
